T cruzi repl: T. cruzi replication inhibition; inhibition, % (concentration not given with the values); T. cruzi beta-gal in NIH3T3, luminescence, 90 h; 300,000 tested, 1.4% active;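 active means mean inhibition across valid replicates above about 55%, limit read from the data; inconclusive means mean below that limit but half or more replicates reach it; inactive means mean below it, under half of replicates reach it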;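 further: signal also drops with host cell toxicity which is not excluded here; 0% = plate median of DMSO wells and 100% = zero luminescence signal; higher percent means less beta-gal luminescence so fewer parasites; stock transfer was 50 nL into about 50 µL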
FGF22 binding: FGF22 (human) thermal shift binding; Q9HCT0; recombinant FGF22 thermal shift, SYPRO orange fluorescence; percent of sucrose octasulfate shift, DMSO zero; calls only at 9.99 µM; 340,000 tested, 1.5% active; AID 651658;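 active means melting point raised past a set limit in the mean and every replicate; inconclusive means no clear call; three in four hits are not shown here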
Target sequence (Q9HCT0 whole entry, looked up): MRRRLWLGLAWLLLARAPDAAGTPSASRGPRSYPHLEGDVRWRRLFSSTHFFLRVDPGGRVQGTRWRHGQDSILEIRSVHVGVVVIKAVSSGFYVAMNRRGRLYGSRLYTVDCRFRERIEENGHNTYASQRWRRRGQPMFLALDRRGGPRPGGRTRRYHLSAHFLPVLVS
ALR inh: human ALR oxidase inhibition via reduced H2O2; P55789; purified ALR, DTT oxidation, H2O2 HRP-luminol luminescence; inhibition, % (test concentration not listed); 290,000 tested, 3.8% active;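 active means mean and each replicate at 75% or more; inconclusive means only one of the two met; inactive means neither met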;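 further: stock transfer was 7.5 nL into about 7.5 µL; 0% = neutral wells and 100% = wells with inactivated enzyme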
Target sequence (P55789 whole entry, looked up): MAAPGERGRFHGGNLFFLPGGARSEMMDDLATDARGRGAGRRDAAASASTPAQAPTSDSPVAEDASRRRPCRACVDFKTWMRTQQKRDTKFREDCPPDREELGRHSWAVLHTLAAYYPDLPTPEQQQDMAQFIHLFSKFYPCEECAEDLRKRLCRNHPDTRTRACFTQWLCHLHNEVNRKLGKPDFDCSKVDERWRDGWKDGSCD
RanGTP-Impb inh: disruptors of Ran-importin-beta complex formation – biochemical, FRET, CFP-Ran, YFP-importin-beta, homogeneous, primary screen | cell-free CFP-Ran/YFP-importin-beta FRET ratio | inhibition, % (no concentration beside the values) | 300,000 tested, 1.1% active | AID 2216;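 active means most replicates above 15%; inconclusive means exactly half above 15%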;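 further: 0% = DMSO wells and 100% = Ran loaded with GDP instead of GTP; wells of about 40 µL received 100 nL stock; the first replicate is given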
MLL AF4-AF9 inh: inhibitors of human MLL-AF4/AF9 interaction | P42568 | AlphaScreen, biotin-AF4 peptide binding to FLAG-AF9 | inhibition, % at 10 µM | 350,000 tested, 0.47% active;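 active means every replicate reaching a set inhibition limit, whatever the replicate mean, cut at about 25% in these data; inconclusive means mean inhibition reaches that limit but some replicates miss it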;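 further: 0% = plate neutral control median and 100% = total signal loss; the record names both 10 and 1 µM as test concentration; the first replicate is given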
Target sequence (P42568 whole entry, looked up): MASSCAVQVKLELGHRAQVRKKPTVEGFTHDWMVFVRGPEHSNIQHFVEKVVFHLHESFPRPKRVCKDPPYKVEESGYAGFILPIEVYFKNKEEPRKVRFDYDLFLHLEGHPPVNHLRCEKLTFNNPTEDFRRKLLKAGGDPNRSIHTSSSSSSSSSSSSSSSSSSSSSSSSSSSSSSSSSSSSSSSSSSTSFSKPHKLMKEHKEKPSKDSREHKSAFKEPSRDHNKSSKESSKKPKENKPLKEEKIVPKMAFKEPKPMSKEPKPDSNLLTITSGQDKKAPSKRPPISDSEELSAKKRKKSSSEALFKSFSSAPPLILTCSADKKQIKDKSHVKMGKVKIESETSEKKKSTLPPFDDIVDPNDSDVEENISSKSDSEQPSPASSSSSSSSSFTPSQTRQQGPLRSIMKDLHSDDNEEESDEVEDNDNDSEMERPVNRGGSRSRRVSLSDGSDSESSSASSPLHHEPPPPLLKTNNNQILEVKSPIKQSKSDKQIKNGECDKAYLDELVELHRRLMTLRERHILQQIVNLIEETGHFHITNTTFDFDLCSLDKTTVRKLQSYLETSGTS
rRNA inh HTS: inhibitors of bacterial rRNA selective over humanized ribosomes. E. coli WT GFP vs humanized-ribosome RFP mutants, fluorescence, 24 h; hits give low values; DMSO median 0, no signal -100. GFP signal change (wild-type ribosome), % (test concentration not listed). 350,000 tested, 1.6% active;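 active means significant combined selectivity score with lowered wild-type GFP, culture density cut under 30%, mutant RFP and density less affected; inactive means any of these conditions unmet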; further: one replicate is shown; some compounds called inactive have numbers as strong as hits
Beta cell apopt: blocks beta cell apoptosis; INS-1E cytokine-induced death, ATP luminescence, 48 h; percent of positive-control rescue, neutral wells zero; 300,000 tested, 0.8% active; protection from apoptosis, % (no concentration beside the values);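 active means all replicates at 75% or more, or half of them and the mean; inconclusive means half reach 75% but not the mean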;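 further: 0% = cytokine-treated negative control wells and 100% = positive control rescue; higher means more ATP so stronger rescue from cytokine killing; wells of about 40 µL received 100 nL stock; the first replicate is given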
Calb FLC: C. albicans growth modulation with fluconazole. growth inhibition, % (concentration not given with the values). C. albicans CaCi-2 (fluconazole-resistant clinical isolate) + fluconazole, Alamar Blue growth, 48 h. 300,000 tested, 0.57% active;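 active means most replicates above 75%; inconclusive means exactly half above 75%; inactive means most below 75%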;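 further: all wells also contain fluconazole at 8 µg/ml as a sub-toxic cotreatment; 0% = median of DMSO wells and 100% = median of geldanamycin control wells; wells of about 8 µL received 7.5 nL stock; the first replicate is given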
rRNA inh HTS OD600: further read-out of rRNA inh HTS, marked with its call; OD600 change, %; measured here: OD600 growth;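 optical density of the mix in the first replicate; 0 = DMSO median and -100 = no signal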
rRNA inh HTS RFP: recorded beside rRNA inh HTS, whose call it bears; RFP signal change, %; measured here: RFP humanized mutant strains;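 first replicate; 0 = DMSO median and -100 = no signal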
* marks the source's active call; other numbers are inactive results; i = inactive; ? = inconclusive; . = not tested or not shown; + = active, no number. The list is partial; rates above refer to the full screens.

canonical_smiles	T cruzi repl	FGF22 binding	ALR inh	RanGTP-Impb inh	MLL AF4-AF9 inh	rRNA inh HTS	rRNA inh HTS OD600	rRNA inh HTS RFP	Beta cell apopt	Calb FLC
COc1ccc(-c2c(C)n([O-])c(C)c(C)[n+]2=O)cc1	-15	.	-12	-0.7	.	.	.	.	5	37
O=C(COC(=O)c1ccc(Cl)nc1)NCCNC(=O)COC(=O)c1ccc(Cl)nc1	-4	i	-5	2.8	3.4	7	10	-1.0	-2	.
COc1cccc(N2CCN(C(=O)CCc3nnc4ccc(N5CCCC5)nn34)CC2)c1	9	i	37	1.6	-12	-2	-5	0.2	1	-5
O=C(Nc1ccc(F)cc1F)c1csc(-c2ccncc2)n1	0	i	-3	-2.6	2.4	1	-1	-1.6	.	5
CCOC(=O)C1=C(N)N(c2ccccc2Oc2ccccc2)C(=O)C1	.	.	2	0.1	.	.	.	.	-7	-4
COCCNC(=O)C(=O)NCCN1CCNCC1	-8	i	-17	1.8	-1.3	26	28	3.1	-2	0
CC(=O)Nc1ccc(NC(=O)CSc2ccc(C(F)(F)F)cc2[N+](=O)[O-])cc1	-1	i	-10	2.7	-2.8	5	9	-1.2	-3	11
CCOC(=O)c1c(-c2ccc(C)o2)csc1NC(=S)NC(=O)c1ccccc1Br	37	.	-9	1.7	.	.	.	.	-1	-3
CCc1ccc(NS(=O)(=O)c2ccc3c(c2)CCN3C(=O)CCC(=O)O)cc1	1	i	49	-3.3	-0.8	-1	10	0.3	-2	-7
CCc1cc(C(=O)N2CCc3c([nH]c4ccccc34)C2c2ccc(OC)cc2F)no1 (stereo not given)	6	.	-7	0.5	12	20	15	-2.0	12	72
COc1cc([N+](=O)[O-])ccc1NC(=O)CC(C)C	1	.	-4	8.3	.	.	.	.	-1	17
CCCOn1nnnc1-c1ccccc1	-7	.	-3	?	.	.	.	.	-4	3
CCOc1[nH]n(-c2ccccc2)c(=O)c1C=Nc1ccc(Cl)cc1	3	.	-4	0.6	.	.	.	.	8	-1
N#Cc1ccccc1S(=O)(=O)N1CCN(CC(O)CN2CCOCC2)CC1 (stereo not given)	.	i	3	.	-26	8	10	-2.3	-2	.
COc1ccc(OC)c(C(=O)c2coc3ccc(OC(C)=O)cc23)c1	-11	.	7	-2.8	0.8	15	-4	-2.8	-2	18
C=CCSc1nc(N)c2c(C)c(C)sc2n1	-2	.	2	-0.3	.	.	.	.	-6	-7
COc1cc(/C=N/NC(=O)c2cc(-c3ccccc3)sc2N)cc(OC)c1OC	38	i	.	-9.4	0.3	-12	12	2.5	12	24
Cn1ncc([N+](=O)[O-])c1C(=O)NCc1ccccc1	7	i	-11	1.8	-1.1	5	7	2.4	0	-7
COc1cccc(N(C(=O)c2nc3nccc(C)n3n2)c2nc3ccccc3s2)c1	14	i	.	3.4	3.4	0	-7	1.6	-13	?
CCCCn1c(=O)c(Cc2ccccc2)c(O)c2ccccc21	-1	.	-4	8.0	.	.	.	.	-1	0
CCN(C(=O)Cn1c(=O)oc2cc(S(=O)(=O)N3CCCC3)ccc21)c1ccc(OC)cc1	8	i	-1	1.1	-10	0	9	-1.9	6	0
CCOc1ccc(OCC)c(NC(=O)Nc2ccc3c(c2)N(C)C(=O)CS3)c1	22	i	54	0.4	2.6	-11	-15	8.7	11	0
O=C(COc1ccc(Cl)cc1)NNC(=S)NCc1ccccc1	0	i	17	-0.6	-1.1	-26	-21	7.0	4	3
CCN(CC)CCCNC(=O)c1cc(Nc2ccc(OC)cc2)nc2ccccc12	-3	i	.	3.0	13	0	2	-7.2	-3	-5
CC(=O)Nc1ccc(NC(=O)c2ccc([N+](=O)[O-])cc2Cl)cc1	19	i	-3	2.1	0.1	4	11	0.5	2	1
CCn1c(SCC(=O)c2cc(OC)ccc2OC)nnc1C(C)C	-17	.	0	-1.9	.	.	.	.	2	2
O=C(CS(=O)(=O)c1ccc(F)cc1)NCc1ccccc1	-10	i	.	4.9	-11	4	8	-1.6	-3	-1
CC(=O)NC(O)C(=O)c1ccco1 (stereo not given)	-4	i	.	-0.3	1.3	11	10	-2.8	-6	1
O=C(N/N=C/c1c[nH]c2ccccc12)c1ccc(O)c(O)c1	-25	+	99*	2.9	9.4	-1	4	-0.1	-9	-2
Cc1ccc(-c2c(C)n([O-])c3c([n+]2=O)CCC3)cc1	-4	.	-3	-2.2	.	.	.	.	-1	3
O=[N+]([O-])c1cccc(CN2CCN(c3ncccn3)CC2)c1	-9	i	-3	0.8	-8.1	4	5	1.2	-7	3
CCOc1ccccc1OCCCC(=O)ON=C(N)c1ccccc1	.	i	-4	.	1.5	-11	-19	-2.4	0	.
COc1cccc(CN2CCNC(=O)C2CC(=O)NC2CCCC2)c1OC (stereo not given)	-3	i	-55	3.8	-0.8	4	8	0.5	-2	-10
COc1ccc(CCNC(=O)c2cnn3c(C(F)F)cc(C)nc23)cc1OC	11	i	-8	0.2	-5.1	-4	-8	-2.6	.	-6
CCCCC(=O)NC1(C(F)(F)F)C(=O)N(Cc2ccco2)C(C)=C1C(=O)OC (stereo not given)	-19	.	-3	0.6	.	.	.	.	-7	-11
Cc1ccc(N(C(=O)c2ccc(S(=O)(=O)N3CCOCC3)cc2)C2C=CS(=O)(=O)C2)cc1C (stereo not given)	6	i	.	-2.6	-2.1	0	-1	0.3	-2	-6
CC(C)CC(=O)N/N=C/c1c(N)n(C)c(=O)n(C)c1=O	-4	i	12	4.3	2.5	18	7	2.6	-2	1
COc1ccc(Cc2nc3ccccc3n2C)cc1	-12	i	0	-1.0	2.1	-8	-2	8.2	-1	-1
Cc1nn(C)c(C)c1CNC(=O)c1nn2c(c1Cl)NC(c1cccs1)CC2C(F)(F)F (stereo not given)	-42	i	-1	-2.6	3.2	3	-2	3.7	-8	5
C(=N\Nc1nc(Nc2ccccc2)nc(Nc2ccccc2)n1)/c1cccnc1	43	.	-2	-0.5	.	.	.	.	19	-18
COc1ccc(C2=NN(c3ccccc3)C(c3cn(CCC(=O)O)nc3-c3ccccc3)C2)cc1 (stereo not given)	-15	+	94*	-0.5	-3.4	6	-5	2.0	-1	37
CC(NCc1cccs1)C(=O)NC1CCCCC1 (stereo not given)	-3	i	-1	17*	-4.0	5	4	-6.6	-6	-2
CCOC(=O)C1CCN(C(=O)COC(=O)c2cccc(F)c2)CC1	-22	i	0	0.4	-3.7	11	12	2.8	-2	6
Nc1nnc(-c2cccnc2)s1	-17	.	1	-1.1	.	.	.	.	-3	-5
Cc1ccc(CNC(=O)C2CCCN(S(=O)(=O)N3CCC(C)CC3)C2)cc1 (stereo not given)	0	i	-5	?	1.9	5	5	-1.0	-3	-38
O=C(CNC(=O)c1cccs1)OCC(=O)c1ccccc1	-18	i	-4	-2.0	-14	11	3	-3.0	.	-10
O=C(CCc1nnc2ccc(N3CCC4(CC3)OCCO4)nn12)N1CCCCC1	-11	i	-2	-0.9	-0.6	4	7	-0.8	7	1
CC(C)(C)c1ccc(/C=C/C(=O)NCCCN2CCOCC2)cc1	-13	i	.	-1.6	3.4	-9	-12	-1.0	2	-9
COc1ccc(C(C#N)c2nc3ccccc3nc2Cl)cc1 (stereo not given)	-21	i	16	4.3	1.8	15	5	-0.8	-4	4
Cn1nc(C(F)(F)F)c(-c2ccccc2)c1NC(=O)CCC(=O)O	-10	i	-12	5.6	0.1	7	11	0.4	-2	-3
COc1cccc(C(=O)N(Cc2cccs2)C2CCS(=O)(=O)C2)c1 (stereo not given)	2	i	-4	1.3	-13	-1	1	1.9	0	6
Fc1ccc(CNC2CCN(Cc3ccccc3)CC2)cc1	20	i	-19	-0.9	5.3	4	5	-1.2	.	-5
CSc1nsc(SC)c1NC(=O)OC1CCCCC1	3	.	19	-3.0	.	.	.	.	-4	-6
S=c1c2c(nc3nc[nH]n13)CCC2	-17	i	28	2.3	-1.8	18	-3	2.5	-1	10
O=C(Nc1ccc2c(c1)OCCO2)c1cccnc1Oc1ccccc1	2	i	1	4.9	-3.1	-14	-10	-0.8	0	-4
CC(NS(=O)(=O)c1ccc(Cl)cc1)C(=O)NCCC1=CCCCC1 (stereo not given)	-1	i	-7	?	-1.4	-34	-34	-2.1	.	-23
CCCS(=O)(=O)C(=C1Nc2ccccc2N1)S(=O)(=O)CCC	-9	.	-4	-2.4	.	.	.	.	0	-8
CCCCCCC1/C(=N/O)CCC1C(=O)OC (stereo not given)	5	.	0	1.0	.	.	.	.	5	-10
Cc1cc(Cl)ccc1OCC(=O)Nc1ccccc1NS(=O)(=O)c1cccs1	-5	i	-3	1.6	-2.6	9	2	2.9	18	3
O=C(NN=C1CCCCCCCCCCC1)c1ccncc1	-7	i	.	-2.1	-5.6	11	2	2.5	-5	1
CN(C)c1ccc(N=Nc2ccccc2Br)cc1	4	i	6	-8.0	35*	-12	-3	-4.2	13	-6
CC(/C=N/n1c(-c2cccnc2)n[nH]c1=S)=C\c1ccccc1	1	.	73	2.1	.	.	.	.	6	11
Cc1ccc(S(=O)(=O)N2CCN(C)CC2c2ccccc2)cc1 (stereo not given)	.	i	-3	.	-2.0	6	-1	0.7	0	.

Screens as filed in PubChem.
